# CBX7 AlphaScr – CBX7 chromodomain binding inhibitors, primary screen, biochemical, AlphaScreen. AlphaScreen His6-CBX7 / biotin-H3K27me3 peptide binding; stronger effect = lower value. AID 1224903, 2016. 66,000 compounds, 1.1% hits. Chromobox protein homolog 7 (Homo sapiens), O95931. normalised signal (fraction of DMSO) (test concentration not listed); in the data active = normalised signal below about 0.5;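 also: 100 nL library stock added to about 20 µL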
# Target sequence (O95931 whole entry, looked up): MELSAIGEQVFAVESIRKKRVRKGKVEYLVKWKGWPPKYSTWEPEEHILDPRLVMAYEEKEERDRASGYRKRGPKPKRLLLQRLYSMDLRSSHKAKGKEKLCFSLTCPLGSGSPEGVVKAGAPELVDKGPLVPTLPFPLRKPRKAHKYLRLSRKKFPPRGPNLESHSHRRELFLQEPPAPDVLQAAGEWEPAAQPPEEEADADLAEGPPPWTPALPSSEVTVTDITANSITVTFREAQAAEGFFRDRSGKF
# CBX7 AlphaScr z-score – recorded beside CBX7 AlphaScr, whose call it bears; z-score; measured here: z-score of CBX7 signal; some inactives read as strong as hits; reference of the scale not given here;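 same signal on another scale; lower means less binding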
# An asterisk follows results filed as active.
SMILES,CBX7 AlphaScr,CBX7 AlphaScr z-score
Cc1cccc(N2CCN(C(=O)CN3CCN(Cc4ccccc4F)C3=O)CC2C)c1 (stereo not drawn),0.92,-1.06
COCCCNC(=O)CSc1nc(-c2ccccc2)[nH]c1-c1ccc(Cl)cc1,1.02,0.656
CCC(=O)N1CCc2cc(S(=O)(=O)Nc3ccc(OC)cc3)ccc21,1.09,0.371
O=C(Nc1ccc2c(c1)OCCO2)C1CCN(S(=O)(=O)c2cccs2)CC1,0.943,-1.03
CCc1ccc2oc(-c3ccc(NC(=O)c4cncc(Br)c4)cc3)nc2c1,0.941,-0.698
CCCCOc1ccc(C(C)(O)C(CN2CCN(c3ccccc3F)CC2)c2ccccc2)cc1 (stereo not drawn),0.992,-0.376
CCc1ccc(CNC(=O)CN2N=C(c3ccc(Cl)cc3)CCC2=O)cc1,0.961,-0.603
COc1ccc(-c2c(C)nn3c(N4CCC(C(=O)Nc5cccnc5)CC4)cc(C)nc23)cc1OC,0.886,-5.35
Cc1ccc2nc(NC(=O)C3CCCN(S(=O)(=O)c4cccs4)C3)sc2c1 (stereo not drawn),1,0.0797
CCN(Cc1ccccc1)C(=O)C(CC(C)C)NS(=O)(=O)c1ccc2c(c1)CCN2C(C)=O (stereo not drawn),0.94,-0.772
COc1cc2c(cc1OC)C(C(=O)NCCN(C)C)C1c3ccccc3CCN1C2=O (stereo not drawn),1.02,0.688
COc1ccc(Nc2c(-c3ccc(OC)cc3)nc3ncccn23)cc1,0.949,-0.214
CCCN1Cc2cccc(C(=O)Nc3ccc(CN4CCCC4)cc3)c2C1=O,1.02,0.0225
COc1ccc(C(=O)NC(C)c2nc3ccccc3[nH]2)cc1OC (stereo not drawn),0.995,-0.0628
CCN1CCN(c2cc(C)c3cc(NC(=O)c4ccc(Br)c(OC)c4)ccc3n2)CC1,0.96,-1.79
Cc1cccc(C)c1NC(=O)c1cc(-c2cccs2)nc2ccccc12,0.973,-0.639
O=C(NCCCN1CCc2ccccc2C1)Nc1ccc(Br)cc1,1.23,4.57
Cn1cc(CC(=O)N2CCC3(CC2)OCCO3)c2ccccc21,1.03,1.08
CCOc1ccc(C(=O)Nc2ccc(S(=O)(=O)Nc3cc(OC)nc(OC)n3)cc2)cc1,1.29,2.47
O=C(Nc1ccc(F)cc1)C1CCN(S(=O)(=O)c2cccs2)CC1,0.981,-0.0193
Cc1ccc(CCN2CC(C(=O)NC3CCCCC3C)CC2=O)cc1 (stereo not drawn),1.02,0.628
Cc1sc2ncnc(Nc3ccc(Cl)cc3)c2c1C,1.17,2.12
Cc1ccccc1-n1c(CCC(=O)O)ccc1-c1ccc(Br)cc1,0.975,-0.767
CN(C(=O)c1cnc(N2CCN(c3ccccn3)CC2)c2ccccc12)c1cccc(C(F)(F)F)c1,1.05,1.91
CCOc1ccc(C(=O)Nc2c3c(nn2-c2cccc(C)c2C)CSC3)cc1OCC,1.11,1.93

# Record cards (already shown).
# `Cc1ccccc1-n1c(CCC(=O)O)ccc1-c1ccc(Br)cc1` is listed as CBX7 AlphaScr: 0.975; CBX7 AlphaScr z-score: -0.767
# `COc1ccc(Nc2c(-c3ccc(OC)cc3)nc3ncccn23)cc1` is listed as CBX7 AlphaScr: 0.949; CBX7 AlphaScr z-score: -0.214
# `Cc1cccc(N2CCN(C(=O)CN3CCN(Cc4ccccc4F)C3=O)CC2C)c1` (stereo not drawn) is listed as CBX7 AlphaScr: 0.92; CBX7 AlphaScr z-score: -1.06

# Continued:
SMILES,CBX7 AlphaScr,CBX7 AlphaScr z-score
COc1ccc(-c2nn(C)c3sc(C(=O)NCC4COc5ccccc5O4)cc23)cc1OC (stereo not drawn),0.988,-0.344
CCOc1ccc2cc(-c3csc(CC#N)n3)c(=O)oc2c1,1.14,1.71
COc1cc2c(cc1OC)C(C(=O)Nc1ccc(C)cc1Cl)C(c1ccccc1F)N(C)C2=O (stereo not drawn),0.95,-1.08
CCOC(=O)c1cnc2c(OC)cccc2c1N1CCCC1,1.03,0.0367
COc1ccc(NC(=O)CC2C(=O)N(c3ccc(OC)cc3)C(=O)N2CCc2cccs2)cc1 (stereo not drawn),1.04,1.8
O=C(NC1CCCCCC1)c1cccc(NC2=NC3CS(=O)(=O)CC3S2)c1 (stereo not drawn),1.12,1.3
Cc1ccccc1Nc1c(-c2ccc(N3CCOCC3)cc2)nc2cnccn12,1.25,2.38
Cc1nc2cc(-c3ccccc3)nn2c(C)c1CCC(=O)Nc1cccc(Cl)c1C,1,0.0708
CC(C)c1ccc(OCc2nc(-c3ccncc3)no2)c(Br)c1,0.971,-0.039
CCc1ccccc1NC(=O)CN(c1ccc(C)cc1)S(=O)(=O)c1c(C)noc1C,0.956,-0.366
COc1ccccc1N1CCN(C(c2cccs2)C(C)NC(=O)c2cccc(F)c2)CC1 (stereo not drawn),0.963,-0.908
COc1ccccc1CNC(=O)Nc1ccc2snnc2c1,1.05,2.05
CCOCCCNC(=O)C1CCCN(Cc2nc(-c3cccc(Cl)c3)oc2C)C1 (stereo not drawn),1.06,1.6
Cn1cc(CC(=O)Nc2cccnc2)c2ccccc21,1,0.156
O=C(Nc1ncccn1)c1c(O)c2ccccc2[nH]c1=O,0.766,-2.52
O=C(Nc1cccc(Cl)c1)c1cc(-c2ccc(Br)cc2)on1,1.01,0.0108
CCOC(CNC(=O)CN1C(=O)CC(C)(C)Sc2ccccc21)OCC,0.932,-0.876
CCN(CC)c1ccc(CNc2nc3ccccc3n2CCN2CCOCC2)cc1,0.86,-5.78
CC(C)c1nc(NCCCO)c(C#N)c2c1CCCC2,0.981,-0.573
CN(C)S(=O)(=O)c1ccc(-c2cn3ccccc3n2)cc1,0.86,-0.491
Clc1ccc(OCc2nc3ccccc3[nH]2)c(Cl)c1,0.952,-0.669
N#Cc1ccc(N2C(=O)C3C4C=CC(CO)(O4)C3C2=O)cc1 (stereo not drawn),1.03,1.11
O=C(CSc1nnc(CNC(=O)c2cccs2)o1)NC1CCCCC1,1.02,0.845
O=C(Nc1nc(-c2ccccc2)cs1)c1cncc(Br)c1,1.08,1.71
C=CCN1C(=O)c2ccccc2Sc2ccc(C(=O)NC(C)C)cc21,1.06,1.7

# For convenience, 2 of the compounds above:
SMILES,CBX7 AlphaScr,CBX7 AlphaScr z-score
O=C(Nc1nc(-c2ccccc2)cs1)c1cncc(Br)c1,1.08,1.71
C=CCN1C(=O)c2ccccc2Sc2ccc(C(=O)NC(C)C)cc21,1.06,1.7

# Further results follow:
SMILES,CBX7 AlphaScr,CBX7 AlphaScr z-score
Cc1ccc(NC(=O)C2CCN(S(=O)(=O)c3cnc[nH]3)CC2)c(Cl)c1,1.09,0.74
CCOC(=O)c1cnc2ccc(OCC)cc2c1N(C)C1CCCCC1,1.05,0.598
CCCCNC(=O)C1CCCN(Cc2nc(-c3cccc(Cl)c3)oc2C)C1 (stereo not drawn),0.985,-0.418
Cc1ccc(C)c(Nc2nnc(-c3ccc(C)c(S(=O)(=O)NCC4CCCO4)c3)c3ccccc23)c1 (stereo not drawn),0.739,-2.95
CC(C)(C)c1ccc(-c2nc(-c3nonc3N)no2)cc1,1.04,0.924
Cc1c(C(=O)N2CCN(c3ccccn3)CC2)sc2ncnc(N3CCC(C)CC3)c12,0.838,-2.33
CCOC(=O)c1cc2c(n(-c3ccc(OC)cc3)c1=O)CC(C)(C)CC2=O,1.12,2
Fc1ccc(-c2nnc3ccc(N4CCc5ccccc5C4)nn23)cc1,0.966,-0.779
CCc1ccccc1NC(=O)c1cc2c(-c3ccc(OC)c(OC)c3)nn(C)c2s1,1.13,1.61
CCCC1=Nc2cc(C(=O)NCC(C)c3ccccc3)ccc2Sc2ccccc21 (stereo not drawn),0.978,-1.11
Cc1ccc(C)c(N2CCN(C(=O)c3ccc4c(c3)NC(=O)c3ccccc3S4)CC2)c1,0.763,-6.64
Cc1ccc(-n2c(Cc3cccn3C)nnc2SCC(=O)NC2CCCCC2)cc1,1.01,0.195
COc1ccc(C2CC(=O)N(CC(=O)Nc3cc(C)ccc3C)c3ccccc3S2)cc1 (stereo not drawn),0.995,-0.0793
Brc1ccc(-n2cnnn2)c2ncccc12,1.02,0.494
O=C(C1CC(=O)N(C2CCCC2)C1)N1CCC(Cc2ccccc2)CC1 (stereo not drawn),1.03,0.927
O=C(CN1C(=O)COc2ccc(Cl)cc21)NC1CCCCCC1,0.968,-0.384
O=C(O)c1ccc(NCc2nc3ccccc3n2Cc2ccc(Cl)cc2)cc1,1.01,0.501
COc1ccc(Cn2nnc3c(=O)[nH]c(C(=O)NCCc4ccc(F)cc4)nc32)cc1OC,0.976,-0.538
COc1ccc(OC)c(Nc2nc(-c3sc(NC(C)=O)nc3C)cs2)c1,0.652,-5.05
Cc1c(Oc2ccccc2)c(=O)[nH]c2nnc(C(F)(F)F)n12,0.962,-0.997
Cc1ccc(C(C(=O)Nc2ccc(C(C)C)cc2)N(C)C(=O)c2cnccn2)cc1 (stereo not drawn),0.925,-0.758
O=C(NCC1CCCO1)c1ccc2nc(N3CCOCC3)sc2c1 (stereo not drawn),1.02,0.865
CCOC(=O)Cc1nnc2c(Nc3ccc(F)cc3)nc3nonc3n12,0.784,-2.97
O=C(NCc1cccnc1)C1CC1(c1ccccc1)c1ccccc1 (stereo not drawn),0.854,-2.31
COc1cccc(-c2nc(CS(=O)(=O)CC(=O)NC(C)CCc3ccccc3)c(C)o2)c1 (stereo not drawn),1.03,1.05

# More results:
SMILES,CBX7 AlphaScr,CBX7 AlphaScr z-score
COCCCNc1nc(-c2ccc(C(C)(C)C)cc2)nc2ccccc12,1.38,3.41
COc1ccccc1-c1cc2nc(C)c(CCC(=O)Nc3ccc(Br)cc3)c(C)n2n1,0.994,-0.151
CCC(=O)N1CCc2cc(S(=O)(=O)NCCC(=O)N3CCN(Cc4ccccc4)CC3)ccc21,1.03,1.15
Cc1cccc(Cn2c(C(C)O)nc3ccccc32)c1 (stereo not drawn),1.02,0.537
O=C(Nc1ccc(F)cc1F)C1CCN(S(=O)(=O)c2cnc[nH]2)CC1,0.83,-2.78
CC(=O)Nc1cccc(NC(=O)Cn2cnc3c(nnn3-c3cccc(Cl)c3)c2=O)c1,0.927,-1.39
Cc1cccc(C)c1NC1c2ccccc2C(=O)N1Cc1ccccc1 (stereo not drawn),0.543,-4.53
Cc1ccccc1Nc1nnc(C)c2ccccc12,0.919,-2.01
CCOc1cccc2sc(NC(=O)c3ccc(S(=O)(=O)N4CCc5ccccc5C4)cc3)nc12,0.925,-0.846
Cc1ccc(Cl)cc1N1CCN(CCNC(=O)Nc2ccc(F)cc2)CC1,1.27,2.14
COc1ccc(NC(=O)c2sc(-c3ccccc3)nc2C)cc1,1.06,0.166
CCOC(=O)c1ccc(Nc2nc3cc(C)ccc3nc2NS(=O)(=O)c2ccc(Cl)cc2)cc1,1.12,4.66
Clc1ccc(Cc2nc(-c3ccccn3)no2)cc1,1.08,2.93
Cc1cccc(NC(=O)CN(C)S(=O)(=O)c2cccc3cccnc23)c1,0.972,-0.629
COCCCNC(=O)c1cc(Nc2ccc(OC)c(OC)c2)nc2ccccc12,0.956,-0.527
CCOC(=O)c1ccc(NC(=O)Nc2cccs2)cc1,0.923,-3.41
COc1cc(OC)cc(C(=O)Nc2cc(-c3nc4cc(C)cc(C)c4o3)ccc2C)c1,0.99,-0.4
COC(CN(C)S(=O)(=O)c1ccc2c(c1)CCN2C(=O)C1CCC1)OC,0.996,-0.134
CC(CCc1ccccc1)NC(=O)c1ccc2c(c1)N(Cc1ccccc1F)C(=O)CS2 (stereo not drawn),0.991,-0.429
CCC(=O)N1CCc2cc(S(=O)(=O)Nc3ccc(C)cc3C)ccc21,0.8,-0.806
Cc1ccc(-n2c(O)cnc2Nc2nc(C)cc(C)n2)cc1,1.05,1.31
CCOc1cc2c(cc1OCC)C1C(C(=O)Nc3ccc(C(C)C)cc3)c3ccccc3C(=O)N1CC2 (stereo not drawn),0.877,-0.99
COc1ccc(C2CC(=O)N(CC(=O)Nc3cc(Cl)ccc3OC)c3ccccc3S2)cc1 (stereo not drawn),0.88,-2.02
Cc1onc(-c2ccccc2Cl)c1C(=O)NCCC12CC3CC(CC(C3)C1)C2,1.06,1.58
Cc1c(C(=O)N2CCN(c3ccccn3)CC2)sc2ncnc(N3CCN(c4ccccc4)CC3)c12,1.03,0.381

# Of the compounds above, these have a cyano group.
SMILES,CBX7 AlphaScr,CBX7 AlphaScr z-score
CCOc1ccc2cc(-c3csc(CC#N)n3)c(=O)oc2c1,1.14,1.71
CC(C)c1nc(NCCCO)c(C#N)c2c1CCCC2,0.981,-0.573
N#Cc1ccc(N2C(=O)C3C4C=CC(CO)(O4)C3C2=O)cc1 (stereo not drawn),1.03,1.11

# Next section
SMILES,CBX7 AlphaScr,CBX7 AlphaScr z-score
O=c1[nH]c(-c2ccc(Br)cc2)cn1-c1cccc(C(F)(F)F)c1,0.985,-0.429
COc1ccc(-n2ccnc2SCC(=O)Nc2cccc(OC)c2)cc1,0.672,-0.435
Cc1ccn2c(NC3CCCCC3)c(-c3ccsc3)nc2c1,0.872,-1.03
COC(=O)Cc1nc(Nc2ccc(C)c(F)c2)c2c(C)c(C)sc2n1,1.03,1.02
COc1ccc(CNC(=O)C(=O)Nc2cccc(C)c2C)cc1,0.829,-4.06
COc1cccc(C(=O)Nc2ccc(Cl)c(-c3nc4cc(C)cc(C)c4o3)c2)c1,1.29,2.83
CC(=O)N1CCc2cc(S(=O)(=O)NCCC(=O)Nc3ccc(C)c(F)c3)ccc21,1.01,0.0694
CCN1CCN(C(c2cccs2)C(C)NC(=O)c2ccccc2OC)CC1 (stereo not drawn),1.27,2.82
Cc1ccc(C2C(=O)N(C3CCCCCC3)CC(=O)N2CCc2ccccc2)cc1 (stereo not drawn),1.05,0.821
COc1ccccc1C1CC(=O)Nc2cc(C)c(C)cc21 (stereo not drawn),0.964,-0.0736
CC(C)OCCCNC(=O)CCn1nc(-c2ccccc2)ccc1=O,1.01,0.22
CC(C)c1ccc(NC(=O)Cn2c(SCc3ccc(F)cc3)nc3ccncc32)cc1,1.05,2.17

# Shown with two lines to a compound: part of the list above
# Fields: CBX7 AlphaScr | CBX7 AlphaScr z-score
COc1ccccc1C1CC(=O)Nc2cc(C)c(C)cc21 (stereo not drawn)
→ 0.964 | -0.0736
CC(C)OCCCNC(=O)CCn1nc(-c2ccccc2)ccc1=O
→ 1.01 | 0.22

# Some of the compounds tested; rates above refer to the full screens.
